PINK1 modulator: A Quantitative High throughput Screen to Identify Chemical Modulators of PINK1 Expression | Potency, µM (series often up to 76.6 µM), without a hit: at the highest dose activation (PINK1 increase), actives largely listed as activators | PINK1 immunofluorescence, high-content cytometry, 24 h | 0.2% of 410,000 active; active = well fitted activation curve with a large enough effect; inconclusive = small, poorly fitted or top-dose-only effect; inactive = flat fitted curve, though single readings scatter; cell line not stated here;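 also: % of control where 0% means no effect; nearly all actives have a fitted effect of over 65% in size; a mitochondrial uncoupler was the plate control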
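PINK1 protein level read as immunofluorescence by microplate cytometer in a fixed, stained stable cell line after 24 h exposure to five compound concentrations, with CCCP as control.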
An asterisk follows results filed as active. Potency is read from the fitted curve at half-maximal effect. A portion of the library (hit frequency here may not be typical).

CCCCN(CC)CCCNC(=O)c1cc2c(=O)oc3ccc(C)cc3c2s1 was read as PINK1 modulator -0.4%.
`Cc1ccc(C(=O)NCC(=O)OCC(=O)c2cccc3ccccc23)cc1` gave PINK1 modulator 0.2%.
`O=C(Nc1ccccc1C(=O)OCc1cc(=O)n2nc(C3CC3)sc2n1)c1ccc(Cl)cc1` gave PINK1 modulator -2.3%.
CCc1ccc2c(c1)c(=O)c(S(=O)(=O)c1ccc(F)cc1)cn2CC(=O)Nc1ccccc1OC was read as PINK1 modulator 0.4%.
`COc1ccc2c(c1)c1nnc(SC)nc1n2Cc1ccccc1` gave PINK1 modulator -0.1%.
For CCc1cccc(-n2c(C)nc3c(cnn3-c3ccc(Cl)cc3)c2=O)c1 the results were PINK1 modulator 1.8%.
For Cc1cc(C)c(S(=O)(=O)N2CCC(N3CCN(Cc4ccc(F)cc4)C(=O)C3=O)CC2)c(C)c1 the results were PINK1 modulator 1.2%.
Screening COc1cccc(CN(C(=O)c2ccc(C(C)(C)C)cc2)C2CCS(=O)(=O)C2)c1 (stereo unspecified) returned PINK1 modulator 0.3%.
For CCCCC1CCC(C(=O)N2CC(=O)Nc3ccc(C)cc3C2c2ccc(F)cc2)CC1 (stereo unspecified) the results were PINK1 modulator 6.0%.
Screening COc1ccc(CNC(=O)CSc2ncc(S(=O)(=O)c3ccc(C)c(Cl)c3)c(=O)[nH]2)cc1 returned PINK1 modulator 0.0%.
For O=C(NCc1ccccc1Cl)c1cc2cccc3c2n1CCS3 the results were PINK1 modulator -0.8%.
`O=C(NCc1ccccn1)c1cnn(-c2nccc(-c3cccs3)n2)c1C1CC1` gave PINK1 modulator -0.2%.
COc1ccc(CCNC(=O)c2cnc3sc(N4CCOCC4)nn3c2=O)cc1OC was read as PINK1 modulator 1.6%.
`COc1ccc(C2C(C(=O)Nc3ccccc3OC)=C(C)Nc3c(C(=O)Nc4ccccc4)cnn32)c(OC)c1` (stereo unspecified) gave PINK1 modulator 11.0%.
COC(=O)c1ccccc1NC(=O)C1=C(C)C(=O)OC12CCCCCC2 was read as PINK1 modulator -1.4%.
For CCCCc1ccc(C(=O)c2c(N)c(C(=O)Nc3cccc(OC)c3)c3ccccn23)cc1 the results were PINK1 modulator 0.1%.
COc1ccc(C)cc1NC(=O)CCc1c(C)nn(-c2ccc(N3CCOCC3)nn2)c1C was read as PINK1 modulator 0.3%.
COc1cccc2cc(-c3nnc(-c4ccc(Cl)cc4)o3)c(=O)oc12 was read as PINK1 modulator 0.8%.
`CCC(C(=O)Nc1cccc(-c2nc3cccnc3s2)c1C)c1ccccc1` (stereo unspecified) gave PINK1 modulator 1.0%.
COc1ccccc1N1CCN(C(=O)c2c(C)oc3ncn(C)c(=O)c23)CC1 was read as PINK1 modulator 1.9%.
For CC(=O)N1c2c(cc(Br)cc2S(=O)(=O)N2CCN(c3ccccc3)CC2)CC1C (stereo unspecified) the results were PINK1 modulator -0.1%.
For OC(Cc1ccc2ccccc2n1)c1ccccc1 (stereo unspecified) the results were PINK1 modulator 0.1%.
CSc1ncc(Cl)c(C(=O)N(Cc2ccccc2Cl)C2CCS(=O)(=O)C2)n1 (stereo unspecified) was read as PINK1 modulator 0.7%.
Screening COc1ccc(Cl)cc1NC(=O)CCC(=O)c1ccc(C)cc1 returned PINK1 modulator 2.8%.
`CN(C(=O)Nc1cn(C)c(=O)c2ccccc12)c1ccccc1` gave PINK1 modulator -0.5%.
For Cc1ccc2c(C)c(C(=O)N3CCC(c4nc5ccccc5s4)CC3)oc2c1C the results were PINK1 modulator 4.0%.
`O=C(COc1ccccc1C(=O)Nc1ccccc1)Nc1ccccc1Cl` gave PINK1 modulator 2.5%.
O=C(c1cc(-c2ccccc2)on1)N1CCOc2ccc(CN3CCN(c4ccccn4)CC3)cc2C1 was read as PINK1 modulator -0.2%.
`COc1cccc(CSc2nc(-c3ccccc3F)nc3c2Cc2c(CO)cnc(C)c2O3)c1` gave PINK1 modulator -0.4%.
For CCOC(=O)c1ccc(NC(=O)N2CCOc3ccccc32)cc1 the results were PINK1 modulator 0.9%.
CC(=O)c1cccc(NC(=O)c2sc3nc4c(cc3c2N)CCCC4)c1 was read as PINK1 modulator 11.9%.
Screening CCOc1ccccc1NC(=O)C1=C(C)Nc2ncnn2C1c1ccccn1 (stereo unspecified) returned PINK1 modulator -5.3%.
Screening Cc1ccc(CNS(=O)(=O)c2cnc(N)nc2)cc1 returned PINK1 modulator 1.4%.
`CCCc1nnc(NC(=O)Nc2ccccc2Cl)s1` gave PINK1 modulator 3.9%.
For COc1ccc(OC)c(/C=C(\C#N)c2nc3ccccc3c(=O)[nH]2)c1 the results were PINK1 modulator 1.0%.
CCOc1ccc(C2CC(c3c(O)n(C4CCCCC4)c(=O)[nH]c3=O)=Nc3ccccc3S2)cc1 (stereo unspecified) was read as PINK1 modulator 0.0%.
Screening COc1ccc(CCNC(=O)c2nc(SCc3ccc(C)cc3)ncc2Cl)cc1OC returned PINK1 modulator 6.0%.
For CCOc1ccc(CCNC(=O)Cn2nc(CC)n3c(cc4c(OC)cccc43)c2=O)cc1OCC the results were PINK1 modulator 0.0%.
Screening Cc1cc(C)cc(NC(=O)Cn2c(=O)n(CCC(C)C)c(=O)c3cccnc32)c1 returned PINK1 modulator 1.7%.
Screening Cc1ccccc1NCc1cccn1-c1nnc(N2CCOCC2)s1 returned PINK1 modulator 15.5%.

Continued, starting with the last five of the part before.
CCOc1ccc(C2CC(c3c(O)n(C4CCCCC4)c(=O)[nH]c3=O)=Nc3ccccc3S2)cc1 (stereo unspecified) was read as PINK1 modulator 0.0%.
Screening COc1ccc(CCNC(=O)c2nc(SCc3ccc(C)cc3)ncc2Cl)cc1OC returned PINK1 modulator 6.0%.
For CCOc1ccc(CCNC(=O)Cn2nc(CC)n3c(cc4c(OC)cccc43)c2=O)cc1OCC the results were PINK1 modulator 0.0%.
Screening Cc1cc(C)cc(NC(=O)Cn2c(=O)n(CCC(C)C)c(=O)c3cccnc32)c1 returned PINK1 modulator 1.7%.
Screening Cc1ccccc1NCc1cccn1-c1nnc(N2CCOCC2)s1 returned PINK1 modulator 15.5%.
For COc1ccc(N2CCN(C(c3ccccc3)c3nnc(-c4ccccc4Cl)o3)CC2)cc1 (stereo unspecified) the results were PINK1 modulator 4.7%.
`Cc1oc2ncnc(N3CCOCC3)c2c1C(=O)Nc1ccc(Br)cc1F` gave PINK1 modulator -0.5%.
`Cc1ccc(CNC(=O)c2nc(S(=O)(=O)Cc3ccc(C)cc3)ncc2Cl)cc1` gave PINK1 modulator 7.6%.
For COc1ccc2nc(SCC(=O)c3c(C)[nH]c4ccccc34)nc(C)c2c1 the results were PINK1 modulator 18.6%.
`Cc1ccc(S(=O)(=O)C(CNC(=O)C(=O)NCCc2ccc(F)cc2)c2cccs2)cc1` (stereo unspecified) gave PINK1 modulator 10.7%.
`COc1ccc(CNC(=O)Cn2c(=O)cc(-c3ccccc3)c3c(C)nn(C)c32)cc1` gave PINK1 modulator 0.4%.
Screening CCc1ccc(S(=O)(=O)c2nnn(-c3ccc(F)cc3)c2N)cc1 returned PINK1 modulator 1.6%.
Screening COc1cccc(-c2cnc(NCc3ccccc3Cl)n2C)c1 returned PINK1 modulator 12.2%.
Screening Cc1nn(-c2ccc3nncn3n2)c(C)c1CCC(=O)Nc1ccc(OC(F)(F)F)cc1 returned PINK1 modulator 1.4%.
For Cc1cc(NC(=O)c2ccc(-c3ccc(Br)cc3)o2)cc(-c2nc3ncccc3o2)c1O the results were PINK1 modulator 5.2%.
COc1ccc(C2C=C(c3ccccc3)Nc3nc(NS(=O)(=O)c4ccc(C)cc4)nn32)cc1 (stereo unspecified) was read as PINK1 modulator -1.2%.
Cc1c(CC(=O)N2CCCCC2)c(=O)oc2cc3occ(C(C)(C)C)c3cc12 was read as PINK1 modulator 1.7%.
COc1ccc(CCNc2nccn(-c3ccc(C)c(C)c3)c2=O)cc1OC was read as PINK1 modulator 0.5%.
Cc1ccc(NC(=O)Cn2cc(C(=O)c3ccco3)c3ccccc32)cc1 was read as PINK1 modulator 0.5%.
O=C(NCc1ccc(F)cc1)c1ccc(CS(=O)(=O)c2ccc(Cl)cc2)o1 was read as PINK1 modulator -1.1%.
COc1ccc(CCNc2ncnc3c2cnn3-c2cccc(Cl)c2)cc1 was read as PINK1 modulator 5.5%.
Screening COc1ccccc1C1C=C(c2ccc(Cl)cc2)Nc2nc(-c3ccc(Cl)cc3)nn21 (stereo unspecified) returned PINK1 modulator 16.2%.
Screening CC(C)CC1N=C2c3ccccc3N=C(SCC(=O)NCCc3ccc(Cl)cc3)N2C1=O (stereo unspecified) returned PINK1 modulator 4.9%.
COc1ccc(CCNC(=O)c2ccc3c(c2)N(Cc2c(F)cccc2Cl)C(=O)CS3)cc1OC was read as PINK1 modulator 0.6%.
Screening Clc1ccccc1CSc1nnc(C2CCNCC2)o1 returned PINK1 modulator -1.0%.

Filtered by structure: the entries above with a thiophene ring, fused or not.
CCCCN(CC)CCCNC(=O)c1cc2c(=O)oc3ccc(C)cc3c2s1 was read as PINK1 modulator -0.4%.
`O=C(NCc1ccccn1)c1cnn(-c2nccc(-c3cccs3)n2)c1C1CC1` gave PINK1 modulator -0.2%.
CC(=O)c1cccc(NC(=O)c2sc3nc4c(cc3c2N)CCCC4)c1 was read as PINK1 modulator 11.9%.
`Cc1ccc(S(=O)(=O)C(CNC(=O)C(=O)NCCc2ccc(F)cc2)c2cccs2)cc1` (stereo unspecified) gave PINK1 modulator 10.7%.

Following part:
COc1ccc(Cn2cc(C(=O)c3ccc(C)c(C)c3)c(=O)c3ccccc32)cc1 was read as PINK1 modulator -0.8%.
For Cc1cccc(NC(=O)CSc2nnc(N)s2)c1 the results were PINK1 modulator 2.6%.
For COc1ccc(OC)c(CCNC(=O)c2cnn(-c3ccccc3)c2-n2cccc2)c1 the results were PINK1 modulator 0.3%.
Cc1cccc(OCC(=O)Nc2nc3c(s2)CC(C(C)(C)C)CC3)c1C (stereo unspecified) was read as PINK1 modulator 5.7%.
O=C(Nc1nnc(N2CCCCCC2)s1)Nc1cc(F)ccc1F was read as PINK1 modulator 1.4%.
Screening C[C@@H](NC(=O)CN(c1ccccc1)S(=O)(=O)N(C)C)c1ccccc1 returned PINK1 modulator -1.4%.
For COc1ccccc1-c1ccnc(-n2ncc(C(=O)NCc3ccncc3)c2C)n1 the results were PINK1 modulator 5.9%.
`COc1cccc(CNC(=O)c2c(OC)cc(=O)n3c2CCN(C(=O)C2CC24CCCCC4)CC3)c1` (stereo unspecified) gave PINK1 modulator -0.8%.
COc1ccccc1CNc1nc2nc(C)c(Cl)c(C)n2n1 was read as PINK1 modulator -0.9%.
For COCCNC(=O)c1nn(-c2ccc(C)cc2)c(=O)c2c1c1ccccc1n2C the results were PINK1 modulator -0.4%.
For Cc1ccc(NC(=O)Cn2c(=O)ccc3cc(S(=O)(=O)N4CCC(C)CC4)ccc32)cc1Cl the results were PINK1 modulator -3.8%.
For COc1ccccc1C1CN(CC(=O)N[C@H]2CCCCNC2=O)Cc2ccccc2O1 (stereo partly specified) the results were PINK1 modulator 0.2%.
For COc1ccc(CCNC(=O)c2c(O)nc3c(C)cccn3c2=O)cc1OC the results were PINK1 modulator 0.6%.
For O=S(=O)(c1ccc(Cl)cc1)c1nnn2c1nc(NC1CCCCC1)c1sccc12 the results were PINK1 modulator 3.0%.
COc1ccccc1NC(=O)C1=C(C)Nc2ncnn2C1c1ccccn1 (stereo unspecified) was read as PINK1 modulator -0.6%.
`CCn1cc(C(=O)NCc2ccc(F)cc2)c(=O)c2cc(S(=O)(=O)N(C)C)ccc21` gave PINK1 modulator 2.3%.
COc1ccc(-n2ccn(CC(=O)Nc3ccc(C)cc3C)c(=O)c2=O)cc1 was read as PINK1 modulator -0.3%.
Screening CCn1cc(CN2Cc3ccccc3OC(c3ccccc3OC)C2)c(C)n1 (stereo unspecified) returned PINK1 modulator 2.7%.
For O=C(CSc1ncc(CO)n1Cc1ccccc1)Nc1nc2ccccc2s1 the results were PINK1 modulator -2.8%.
`CCOC(=O)c1ccc(NC(=O)CSc2nnc3c4ccccc4n(CC)c3n2)cc1` gave PINK1 modulator 4.1%.

Retrieved by compound from the list above (2):
For COc1ccc(N2CCN(C(c3ccccc3)c3nnc(-c4ccccc4Cl)o3)CC2)cc1 (stereo unspecified) the results were PINK1 modulator 4.7%.
For COc1ccc(CCNC(=O)c2c(O)nc3c(C)cccn3c2=O)cc1OC the results were PINK1 modulator 0.6%.

Additional structures follow.
For COCCn1c(SCC(=O)c2ccc(F)cc2)nc2cc(C(=O)NC3CCCC3)ccc2c1=O the results were PINK1 modulator 2.5%.
`Cc1ccc(C)c(S(=O)(=O)c2cn(C)c3cc(N4CCCCC4C)c(F)cc3c2=O)c1` (stereo unspecified) gave PINK1 modulator 1.9%.
COc1ccc(NC(=O)CN2C(=O)C3(SCC(=O)N3c3cccc(OC)c3)c3ccccc32)cc1 (stereo unspecified) was read as PINK1 modulator -4.1%.
COc1cc(-c2ccc(Cl)cn2)cc2c1OCCN(S(=O)(=O)C[C@]13CC[C@H](CC1=O)C3(C)C)C2 was read as PINK1 modulator -0.7%.
CCn1cc(C(=O)NCCc2ccc(C)cc2)c(=O)c2cc(S(=O)(=O)N3CCC(C)CC3)ccc21 was read as PINK1 modulator 0.4%.
`O=C(CSc1ncc(-c2ccccc2)[nH]1)Nc1cccc(C(F)(F)F)c1` gave PINK1 modulator 0.6%.
Screening CCC(C)OC(=O)/C(C#N)=C\c1ccc(-c2cccc(C(F)(F)F)c2)o1 (stereo unspecified) returned PINK1 modulator 0.7%.
`CCCn1c(CCC(=O)Nc2cc(C(=O)OC)cc(C(=O)OC)c2)nc2cccnc21` gave PINK1 modulator 1.3%.
Cc1c(CCC(=O)NCCc2ccccc2)c(=O)oc2cc(O)ccc12 was read as PINK1 modulator 0.5%.
Screening CCN1CCCC1CNC(=O)c1cnn(-c2nccc(-c3cccs3)n2)c1C1CC1 (stereo unspecified) returned PINK1 modulator 1.6%.
For CCc1ccc2nc(N3CCN(C(=O)C4CC4)CC3)sc2c1 the results were PINK1 modulator -0.5%.
For COc1ccc(S(=O)(=O)N2CCC(n3c(C)nc4cccnc43)CC2)cc1Cl the results were PINK1 modulator 0.7%.

Screening data as filed in PubChem.
